RN4220 kill: kills Staphylococcus aureus RN4220. S. aureus RN4220 growth, OD600, 16 h. inhibition, % (no concentration beside the values). 330,000 tested, 0.33% active. AID 1259311;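 active = z-score of -3 or lower and OD600 up to 0.18 on both plates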;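 note: plate controls were untreated cells for no effect and reference antibiotic for full effect; stock transfer was 100 nL into about 80 µL; one replicate is shown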
Mtb hypoxia rep: inhibitors of hypoxia-regulated fluorescent reporter in Mycobacterium tuberculosis. M. tuberculosis hypoxia-regulated fluorescent reporter, fluorescence. fluorescence inhibition, % (no concentration beside the values). 300,000 tested, 0.1% active. AID 1159583;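 active = 35 to 45% if threefold the growth effect, above 45% if 1.5-fold the growth effect; inactive = the rest, general growth blockers included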;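 note: wells of about 50 µL received 100 nL stock; 0% = vehicle wells and 100% = reference inhibitor wells; whole bacteria with a GFP reporter of the hypoxia response; strong numbers were not always called active; many hits fall short of the cut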
Bead autofluor: flagged as autofluorescent in microsphere protease counterscreen; compound autofluorescence counterscreen, microsphere flow cytometry; active compounds read high; fluorescence intensity (no concentration beside the values); 360,000 tested, 3.1% active;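 active = at least 3 SD above the mean of all compounds, about 16000 in these data; inconclusive = too few beads counted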;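 note: 100 nL of 1 mM stock went into each well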
ugtP null kill: compounds lethal to S. aureus RN4220 ugtP deletion mutant. OD600 growth, 16 h; some inactives read as strong as hits. growth inhibition, % (test concentration not listed). 330,000 tested, 0.54% active. AID 1259309;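 active = z-score under -3 and OD600 up to 0.15 on both plates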;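 note: plate controls were untreated wells for no effect and antibiotic for full effect; wells of about 80 µL received 100 nL stock; the first replicate is given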
PrP 5UTR inh: suppresses PrP 5' UTR mRNA reporter expression. 340,000 tested, 0.35% active. inhibition, % (test concentration not listed). AID 488862. cell-based PrP 5' UTR mRNA reporter, plate reader;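 active = every replicate at 50% or more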;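 note: 0 = median of the neutral control wells; tested in H4 reporter cells; numbers are from one replicate; inactives centre near -14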
BJeLR viability: kills HRASV12-expressing BJeLR cells | BJeLR (HRASV12) viability, CellTiter-Glo ATP luminescence, 48 h; reference of the scale not given here | inhibition, % (concentration not given with the values) | 300,000 tested, 0.17% active;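 active = replicate mean above 50%; inconclusive = above 50% but judged a plate artefact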;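 note: 50 nL library stock added to about 25 µL; numbers are from one replicate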
Mtb hypoxia rep growth: further read-out of Mtb hypoxia rep, marked with its call; growth inhibition, %; measured here: M. tuberculosis growth (absorbance);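 0% = vehicle and 100% = reference antibiotic; read after six days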
* marks the source's active call; other numbers are inactive results; ? = inconclusive; · = not tested or not shown.

SMILES	RN4220 kill	Mtb hypoxia rep	Mtb hypoxia rep growth	Bead autofluor	ugtP null kill	PrP 5UTR inh	BJeLR viability
Cc1cc2c(=O)n(Cc3ccco3)c(SCC(=O)c3ccc(Cl)s3)nc2s1	0.6	7	5	11330	4	-17	11
COc1cc(C(=O)N2CCN(C(=O)C3CCCO3)CC2)cc(OC)c1OC (configuration not stated)	2.0	-6	3	4110	1	-17	·
Cc1cc(C)c(C#N)c(Nc2ccc3c(c2)OCCO3)n1	4.3	12	7	4776	17	-25	6
CC1CCc2cc(F)ccc2N1C(=O)CSc1nnc2c3ccccc3n(C)c2n1 (configuration not stated)	6.6	11	3	13134	3	-24	3
Cc1ccc(NC(=O)CCNS(=O)(=O)c2ccccc2)cc1S(=O)(=O)N1CCOCC1	1.4	-1	11	4124	1	-26	-5
COc1ccc(N/C=C(\C=C\C#N)S(=O)(=O)c2ccccc2)cc1	1.4	15	2	3981	5	0	-5
O=C(/C=C/c1ccco1)NCc1ccc2c(c1)OCO2	3.3	10	20	4283	13	-25	18
CCOC(=O)c1c(-c2ccccc2)csc1NC(=O)c1cc(-c2ccccc2OC)on1	3.5	-2	2	5234	21	-35	0
Cc1ccc(CCNC(=O)C2CCN(S(=O)(=O)c3ccc4c(c3)oc(=O)n4C)CC2)cc1	3.5	7	1	5857	2	-13	1
COc1ccc(-c2nc(SC(CC(=O)NCc3ccccc3)c3ccc(OC)c(OC)c3)n[nH]2)cc1 (configuration not stated)	2.3	1	9	2600	-4	-28	1
COc1ccc(-n2c(C)cc(C(=O)CSc3nnc(-c4ccoc4C)n3C)c2C)cc1	1.9	1	10	4284	9	-22	-5
O=C(O)Cc1c[nH]c2cccc(O)c12	4.5	·	·	5032	1	-43	6
CC1CCc2nn(CC(=O)NCc3ccc4c(c3)OCO4)cc2C1 (configuration not stated)	0.2	·	·	6041	-5	-9	-5
COc1cc2c(C)nc3onc(-c4ccccc4)c3c2cc1OC	5.2	·	·	2784	3	-3	1
O=C(CNC(=O)c1cccc(Br)c1)N/N=C/c1ccc[nH]1	·	·	·	4720	·	-1	-3

Quoted from above (2 entries):
SMILES	RN4220 kill	Mtb hypoxia rep	Mtb hypoxia rep growth	Bead autofluor	ugtP null kill	PrP 5UTR inh	BJeLR viability
COc1cc2c(C)nc3onc(-c4ccccc4)c3c2cc1OC	5.2	·	·	2784	3	-3	1
O=C(CNC(=O)c1cccc(Br)c1)N/N=C/c1ccc[nH]1	·	·	·	4720	·	-1	-3

Returning to the listing with the 3 entries that preceded the break.
SMILES	RN4220 kill	Mtb hypoxia rep	Mtb hypoxia rep growth	Bead autofluor	ugtP null kill	PrP 5UTR inh	BJeLR viability
CC1CCc2nn(CC(=O)NCc3ccc4c(c3)OCO4)cc2C1 (configuration not stated)	0.2	·	·	6041	-5	-9	-5
COc1cc2c(C)nc3onc(-c4ccccc4)c3c2cc1OC	5.2	·	·	2784	3	-3	1
O=C(CNC(=O)c1cccc(Br)c1)N/N=C/c1ccc[nH]1	·	·	·	4720	·	-1	-3
O=C(NCCn1ccc2ccccc21)c1ccc(S(=O)(=O)N2CCOCC2)cc1	-11	1	12	6922	-7	-2	4
O=C(c1cc(-c2ccccc2)nc2ccccc12)N1CCN(c2ccccn2)CC1	-0.2	5	6	3601	1	-7	0
COc1cccc(NC(=O)c2ccc3nc(C)sc3c2)c1	3.3	-11	-5	4362	-2	-58	-13
CCOc1cc(N2CCOCC2)c(OCC)cc1NC(=O)CSc1n[nH]c(N)n1	7.2	1	-2	4317	-2	-14	-9
N#Cc1c(SCC(N)=O)nc(-c2ccccc2)c2c1CCCC2	7.2	12	6	2927	-5	-5	4
CCOc1ccc(N(CC(=O)OC)S(=O)(=O)c2ccc(OC)c(OC)c2)cc1	0.2	5	9	3109	-6	-4	-4
COC(=O)c1sc2ncn(CC(=O)N(C)C3CCCCC3)c(=O)c2c1C	3.0	5	-1	3619	7	-22	-5
COc1ccc(C(=O)O/N=C/c2ccc(S(=O)(=O)c3ccc(Cl)cc3)nc2)cc1	·	·	·	4098	·	-18	5
COc1ccccc1NC(=O)c1ccc(S(=O)(=O)N2CCCC(C)C2)cc1 (configuration not stated)	1.6	10	-1	4351	0	-8	7
COc1cc(OC)cc(C(=O)Nc2nnc(Cc3ccc(OC)c(OC)c3)s2)c1	5.8	13	2	3299	-62	0	-28
Cc1cccc(N2CCN(Cc3ccoc3)CC2)c1C	1.6	5	4	12609	-1	-21	-13
O=C(COC(=O)c1cc(Br)ccc1O)NC1CCCCCC1	1.9	7	6	?	-1	-8	3
C[C@H](NC(=O)c1ccco1)C(=O)Nc1cccc([N+](=O)[O-])c1	-2.2	-5	7	4279	-11	-57	-4
Cc1cc(C)nc(NNC2=CC(=[N+]3CCCC3)CCC2)n1	2.6	6	12	2782	1	-10	-10
COc1ccc(S(=O)(=O)N2CCN(CC(=O)NC3CC3)CC2)cc1	3.5	9	5	4982	10	-7	11
OCCC1CN(CC(c2ccccc2)c2ccccc2)CCN1C1CCCC1 (configuration not stated)	-0.9	-1	-9	2391	8	-16	-12
O=C1NC(=Nc2ccc(O)cc2)S/C1=C/c1ccco1	6.7	4	-1	2576	-3	-36	2
CCOC(=O)C1CCCN(C(=O)c2ccc(C)c(S(=O)(=O)N3CCCCC3)c2)C1 (configuration not stated)	-5.3	-1	-6	3219	-2	-18	·
O=C(Nc1ccc2c(c1)OCO2)c1cccc(F)c1	2.7	7	10	4775	-5	-81	10
Cc1ccc(NC(=S)NCC(O)c2ccccc2)c(C)c1 (configuration not stated)	-1.0	·	·	3909	-1	-13	-20
O=C1NC(=O)C2(Cc3ccccc3N3CCCC32)C(=O)N1c1ccccc1 (configuration not stated)	2.0	4	8	3927	-5	-8	-5
CCOC(=O)c1c(NC(=O)COC(=O)c2ccncc2)sc(C)c1C	1.4	4	2	4783	5	-16	1
Cc1ccc(CC(=O)NCc2ccc(Cl)cc2)cc1	-3.6	·	·	2569	8	-24	15
Cc1ccc(Nc2ccc([N+](=O)[O-])cn2)cc1Cl	-9.8	7	4	3304	-11	-30	-3
CCOC(=O)C(=O)c1c(-c2ccc(C)cc2)nc2ccccn12	-1.7	-3	-2	3953	2	-29	-7
O=C(CNC(=O)C(=Cc1ccccc1)NC(=O)c1ccc(Br)cc1)OCc1ccccc1	12	3	8	·	17	·	·
CC(C)(C)NC(=O)Nc1ccc(Br)cc1	13	9	-7	2494	7	-45	8
CCSc1ccc2cc(OC)ccc2[n+]1CC	5.0	15	5	4316	-2	-20	17
COC(=O)[C@@H](Cc1c[nH]c2ccccc12)NC(=O)c1cc(=O)[nH]c2ccccc12	5.3	-3	10	4649	9	-12	6
CC1CCCCN1C(=O)COC(=O)c1cc(-c2cccs2)nn1-c1ccccc1 (configuration not stated)	0.2	7	0	?	-3	·	·

Part of the list above in another layout.
> O=C(CNC(=O)C(=Cc1ccccc1)NC(=O)c1ccc(Br)cc1)OCc1ccccc1
  RN4220 kill = 12; Mtb hypoxia rep = 3; Mtb hypoxia rep growth = 8; Bead autofluor = ·; ugtP null kill = 17; PrP 5UTR inh = ·; BJeLR viability = ·

> CC(C)(C)NC(=O)Nc1ccc(Br)cc1
  RN4220 kill = 13; Mtb hypoxia rep = 9; Mtb hypoxia rep growth = -7; Bead autofluor = 2494; ugtP null kill = 7; PrP 5UTR inh = -45; BJeLR viability = 8

> CCSc1ccc2cc(OC)ccc2[n+]1CC
  RN4220 kill = 5.0; Mtb hypoxia rep = 15; Mtb hypoxia rep growth = 5; Bead autofluor = 4316; ugtP null kill = -2; PrP 5UTR inh = -20; BJeLR viability = 17

> COC(=O)[C@@H](Cc1c[nH]c2ccccc12)NC(=O)c1cc(=O)[nH]c2ccccc12
  RN4220 kill = 5.3; Mtb hypoxia rep = -3; Mtb hypoxia rep growth = 10; Bead autofluor = 4649; ugtP null kill = 9; PrP 5UTR inh = -12; BJeLR viability = 6

Next section:
SMILES	RN4220 kill	Mtb hypoxia rep	Mtb hypoxia rep growth	Bead autofluor	ugtP null kill	PrP 5UTR inh	BJeLR viability
O=C(NC1CCCC1)C(c1cccnc1)N(C(=O)c1csnn1)C1CCCC1 (configuration not stated)	4.8	7	10	3519	11	0	-12
Cc1ccc(Oc2ccccc2/C=N/O)cc1	·	·	·	2746	·	-11	7
CC(C)(C)C(=O)N1CCC[C@@]1(CO)C(=O)O	-0.8	0	-3	2067	0	0	-4
COc1ccc(C(=O)NNC2=C(C(=O)C(F)(F)F)CCC2)cc1	0.8	-3	0	·	97*	-11	-7
CC1CC(C)CN(C(=O)c2cccc(S(=O)(=O)N3c4ccccc4CC3C)c2)C1 (configuration not stated)	6.0	6	4	?	-7	-25	·
CSCCC(NC(=O)c1cccc(C)c1)C(=O)NNC(=O)c1cccs1 (configuration not stated)	1.6	7	6	·	1	-51	·
CCOc1cc(C=NNC(=O)C(=O)NN=Cc2ccc(O)c(OCC)c2)ccc1O	5.9	12	3	·	12	·	·
O=C(Cc1cccc2ccccc12)N/N=C/c1ccc(OC(=O)/C=C/c2ccco2)cc1	·	·	·	2407	·	-29	7
Cc1cccn2c(=O)c3cc(C(=O)NCCN4CCOCC4)c(=N)n(CCN4CCOCC4)c3nc12	·	·	·	4309	·	7	-8
Cc1ccc(S(=O)(=O)n2nc(C)cc2C)cc1	1.9	-7	-7	9737	-2	0	3
CCN1CCN(CCNC(=O)C2CCCN(Cc3nc(-c4cccc(Cl)c4)oc3C)C2)CC1 (configuration not stated)	-2.8	·	·	5956	4	-8	9
O=C(C1CCC1)N1CCc2cc(S(=O)(=O)NCc3ccccn3)ccc21	-0.1	-2	9	9662	0	-10	4
N#Cc1c2n(c3c(=S)nc[nH]c13)CCCCC2	-3.3	·	·	2463	-4	8	-4
O=C(CCC1CCCCC1)NCCN1C2=NC[C@@H](Cc3ccccc3)N2C[C@H]1Cc1ccc(O)cc1	·	·	·	3079	·	-10	-4
COc1ccc(S(=O)(=O)Nc2ccc(C(F)(F)F)cc2)cc1OC	3.0	-1	-1	9409	-1	-18	1
COC(=O)C1=C(C)NC(C)=C(C(=O)OC)C1c1ccccc1OCc1c(C)no[n+]1[O-]	-3.3	-2	-1	5378	-5	-2	·
CCOC(=O)C(NC(C)=O)(N1CCc2ccccc2C1)C(F)(F)F (configuration not stated)	7.3	12	13	3887	3	-20	0
Cc1ccnc2nc(C(=O)Nc3nccs3)nn12	·	·	·	2838	·	-10	7
CC1CCCCC12NC(=O)N(CC(=O)Nc1ccccc1-c1ccccc1)C2=O (configuration not stated)	2.7	-9	2	4316	-3	-1	-6
COc1ccc(S(=O)(=O)Nc2ccccc2SC)cc1C	2.7	-1	4	23520*	-10	-17	4
COc1ccc(NC2CCCN(C(=O)c3c(C)noc3C)C2)cc1 (configuration not stated)	1.5	8	8	4439	6	-4	6
COCc1c(Br)c(C)nc(OCC(=O)NN=Cc2cc(C)n(-c3ccc([N+](=O)[O-])cc3)c2C)c1C#N	4.0	13	5	·	10	·	·
CC1CCCC(NC(=S)NC(=O)c2cncc(Br)c2)C1C (configuration not stated)	-1.2	9	4	2428	-1	-32	-3
O=[N+]([O-])c1ccc(/C=N/NC2=NS(=O)(=O)c3ccccc32)cc1	·	·	·	2301	·	-18	-8
O=C(CSc1nnc(-c2ccccc2)n1C1CCCCC1)Nc1ccc(S(=O)(=O)Nc2ccccn2)cc1	1.5	-7	10	3205	-14	-17	6
COc1ccc(C2SCCN2S(=O)(=O)c2ccccc2)cc1OC (configuration not stated)	1.5	·	·	4401	-3	-12	-7
Cc1ccc([N+](=O)[O-])cc1S(=O)(=O)Nc1ccccn1	2.0	-4	4	4172	3	-11	3
CCn1c(C)c(C(C)=O)c(N2CCN(C(=O)c3ccco3)CC2)nc1=S	3.8	10	8	8635	-2	-19	-3
COc1ccccc1NC(=O)c1cc([N+](=O)[O-])ccc1N1CCOCC1	1.1	1	2	5352	0	-10	4
C(=NNc1nncn1N=Cc1ccco1)c1ccco1	7.4	12	-3	·	5	·	·
N#CC1=C(N)n2c(sc(=Cc3ccco3)c2=O)=C(C#N)C1c1ccco1 (configuration not stated)	-2.2	-5	-2	·	27	·	·
Cc1ccc(N2C(=O)CSCC2=O)cc1	-12	5	11	2941	-11	-23	-5

Quoted at random: two records from the list.
SMILES	RN4220 kill	Mtb hypoxia rep	Mtb hypoxia rep growth	Bead autofluor	ugtP null kill	PrP 5UTR inh	BJeLR viability
Cc1ccc(N2C(=O)CSCC2=O)cc1	-12	5	11	2941	-11	-23	-5
O=[N+]([O-])c1ccc(/C=N/NC2=NS(=O)(=O)c3ccccc32)cc1	·	·	·	2301	·	-18	-8

Screens as filed in PubChem.
